Screens from PubChem BioAssay.
rRNA inh HTS: reduced GFP signal of wild-type E. coli, primary screen, bacterial rRNA inhibitor project, GFP/RFP fluorescence, OD600, single point | E. coli WT GFP vs humanized-ribosome RFP mutants, 24 h; hits give low values; DMSO median 0, no signal -100 | GFP signal change (wild-type ribosome), % (test concentration not listed) | 1.6% of 350,000 active | AID 720706, 2013;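 active means significant combined selectivity score with lowered wild-type GFP, culture density cut under 30%, mutant RFP and density less affected; inactive means any of these conditions unmet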; further: one replicate is shown; some compounds called inactive have numbers as strong as hits
rRNA inh HTS OD600: further read-out of rRNA inh HTS, marked with its call; OD600 change, %; measured here: OD600 growth;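 optical density of the mix in the first replicate; 0 = DMSO median and -100 = no signal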
rRNA inh HTS RFP: recorded beside rRNA inh HTS, whose call it bears; RFP signal change, %; measured here: RFP humanized mutant strains;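 first replicate; 0 = DMSO median and -100 = no signal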
An asterisk follows results filed as active; & = joins results of further samples.

rRNA inh HTS	rRNA inh HTS OD600	rRNA inh HTS RFP	structure
-5	-10	0.4	C[C@H]1CN([C@@H](C)CO)C(=O)Cc2cc(NC(=O)Nc3cccc4ccccc34)ccc2O[C@@H]1CN(C)Cc1ccncc1
1	-11	2.8	COc1ccc(CN(C)C[C@@H]2OCCCC[C@H](C)Oc3ccc(NS(=O)(=O)c4ccc(OC)cc4)cc3C(=O)N([C@H](C)CO)C[C@@H]2C)cc1
4	6	-4.2	C[C@H]1CN([C@@H](C)CO)C(=O)Cc2cc(NC(=O)NC3CCCCC3)ccc2O[C@H]1CN(C)Cc1ccc(C(=O)O)cc1
0	8	-1.9	CCNC(=O)C[C@H]1CC[C@@H](NC(=O)C2CCOCC2)[C@H](CO)O1
5	-1	-0.1	COCc1cn(CC[C@H]2CC[C@H](NC(=O)c3ccc(F)cc3)[C@@H](CO)O2)nn1
-1	-3	3.5	Cc1cccc(S(=O)(=O)N2C[C@H](O)COC[C@@H]3O[C@H](CC(=O)Nc4ccc(-c5ccccc5)cc4)CC[C@H]32)c1
5	10	0.6	CN1CCN(C(=O)C[C@@H]2C[C@@H]3c4cc(NC(=O)Cc5ccncc5)ccc4O[C@@H]3[C@@H](CO)O2)CC1
0	5	-0.6	CO[C@@H]1CN(C)C(=O)c2cc(NS(C)(=O)=O)ccc2OC[C@@H](C)N(C(=O)NC(C)C)C[C@H]1C
3	2	-1.9	Cc1noc(C)c1NC(=O)NCC[C@@H]1CC[C@H](NC(=O)c2ccccc2)[C@H](CO)O1
4	-46	14	N#C[C@@H]1[C@@H](c2ccc(C#Cc3ccccc3F)cc2)[C@@H](CO)N1C(=O)C1CCCC1

Reformatted bar-delimited: entries from further up.
SMILES | rRNA inh HTS | rRNA inh HTS OD600 | rRNA inh HTS RFP
CCNC(=O)C[C@H]1CC[C@@H](NC(=O)C2CCOCC2)[C@H](CO)O1 | 0 | 8 | -1.9
COCc1cn(CC[C@H]2CC[C@H](NC(=O)c3ccc(F)cc3)[C@@H](CO)O2)nn1 | 5 | -1 | -0.1
Cc1cccc(S(=O)(=O)N2C[C@H](O)COC[C@@H]3O[C@H](CC(=O)Nc4ccc(-c5ccccc5)cc4)CC[C@H]32)c1 | -1 | -3 | 3.5
CN1CCN(C(=O)C[C@@H]2C[C@@H]3c4cc(NC(=O)Cc5ccncc5)ccc4O[C@@H]3[C@@H](CO)O2)CC1 | 5 | 10 | 0.6
CO[C@@H]1CN(C)C(=O)c2cc(NS(C)(=O)=O)ccc2OC[C@@H](C)N(C(=O)NC(C)C)C[C@H]1C | 0 | 5 | -0.6

(listing goes on)
rRNA inh HTS	rRNA inh HTS OD600	rRNA inh HTS RFP	structure
1	-8	0.0	COc1ccc(NC(=O)Nc2cccc3c2O[C@H](CN(C)C(=O)Nc2c(C)noc2C)[C@H](C)CN([C@@H](C)CO)C3=O)cc1
0	1	-1.7	Cc1noc(C)c1NC(=O)Nc1cccc2c1O[C@H](CN(C)Cc1ccc3c(c1)OCO3)[C@@H](C)CN([C@@H](C)CO)C2=O
2	-6	-3.1	OC[C@@H]1[C@@H](c2ccc(Br)cc2)[C@@H]2CN(Cc3cncnc3)CCCCN12
1	0	0.0	N#C[C@H]1[C@@H](c2ccc(C3=CCCCC3)cc2)[C@H](CO)N1C(=O)NC1CCCC1
3	4	1.3	CC1(C(=O)NS(=O)(=O)c2ccc(C#N)cc2)CCN1C(=O)CC1CC1 (stereo unspecified)
-8	-12	0.6	Cc1ccc(NC(=O)CSC(C)C(=O)OCc2cc(=O)oc3cc(O)ccc23)cc1 (stereo unspecified)
4	9	-2.7	CC(C)NC(=O)N1[C@H](CO)[C@@H](c2ccccc2)[C@H]1CN(C)C(=O)c1cccnc1
3	5	-3.5	CCCNC(=O)C1(C)CCN(C(=O)COCc2ccccc2)C1 (stereo unspecified)
4	11	-0.2	C[C@@H]1CN([C@@H](C)CO)C(=O)c2cc(C#Cc3ccncc3)cnc2O[C@@H]1CN(C)C(=O)c1ccccc1F
1	5	-1.4	C[C@@H]1CCCCO[C@H](CN(C)S(C)(=O)=O)[C@@H](C)CN([C@@H](C)CO)C(=O)c2cc(NC(=O)CCCN(C)C)ccc2O1

At a glance, part of the list above:
rRNA inh HTS	rRNA inh HTS OD600	rRNA inh HTS RFP	structure
-5	-10	0.4	C[C@H]1CN([C@@H](C)CO)C(=O)Cc2cc(NC(=O)Nc3cccc4ccccc34)ccc2O[C@@H]1CN(C)Cc1ccncc1
1	-11	2.8	COc1ccc(CN(C)C[C@@H]2OCCCC[C@H](C)Oc3ccc(NS(=O)(=O)c4ccc(OC)cc4)cc3C(=O)N([C@H](C)CO)C[C@@H]2C)cc1
4	6	-4.2	C[C@H]1CN([C@@H](C)CO)C(=O)Cc2cc(NC(=O)NC3CCCCC3)ccc2O[C@H]1CN(C)Cc1ccc(C(=O)O)cc1

(more compounds)
rRNA inh HTS	rRNA inh HTS OD600	rRNA inh HTS RFP	structure
5	-3	1.4	CS(=O)(=O)N1[C@H](C#N)[C@H](c2ccccc2-c2ccc(F)cc2)[C@@H]1CO
6	2	-4.2	CNC[C@@H]1OCCCC[C@H](C)Oc2ccc(NC(=O)c3ccncc3)cc2C(=O)N([C@H](C)CO)C[C@H]1C
-7	-6	2.5	CC(=O)N(C)C[C@H]1Oc2cc(C#Cc3cccnc3)ccc2S(=O)(=O)N([C@H](C)CO)C[C@@H]1C
4	0	1.8	CO[C@H]1CN(C)C(=O)c2ccc(NS(=O)(=O)c3ccc(-c4ccccc4)cc3)cc2OC[C@H](C)NC[C@H]1C
-1	3	-1.1	Cc1noc(C)c1S(=O)(=O)Nc1ccc2c(c1)C(=O)N([C@@H](C)CO)C[C@H](C)[C@@H](CN(C)C(=O)Nc1ccc3c(c1)OCO3)O2
1	4	-0.8	Cc1noc(C)c1NC(=O)N(C)C[C@@H]1Oc2ccc(NC(=O)C3CC3)cc2CC(=O)N([C@H](C)CO)C[C@H]1C
3	6	-4.3	COc1ccc(NC(=O)N(C)C[C@H]2Oc3ncc(C#C[C@H](C)O)cc3C(=O)N([C@H](C)CO)C[C@@H]2C)cc1
-6	-3	0.8	C[C@H](CO)N1C[C@H](C)[C@@H](CN(C)C(=O)Nc2ccc3c(c2)OCO3)Oc2cc(C#Cc3ccncc3)ccc2S1(=O)=O
0	-4	0.5	COc1cccc(C#Cc2ccc([C@@H]3[C@@H](C#N)N(C(=O)C4CC4)[C@H]3CO)cc2)c1
3	9	-4.3	N#C[C@H]1[C@@H](c2ccc(C3=CCCC3)cc2)[C@H](CO)N1C(=O)NC1CCCCC1

The list continues:
rRNA inh HTS	rRNA inh HTS OD600	rRNA inh HTS RFP	structure
-46	-72	-12	COc1ccc(C(O)c2nc(-c3ccccc3OC)cs2)cc1 (stereo unspecified)
1	0	2.0	C[C@H]1CN([C@@H](C)CO)C(=O)c2cc(NC(=O)CCC(F)(F)F)ccc2O[C@@H]1CN(C)Cc1ccc(Oc2ccccc2)cc1
4	13	-0.7	CC(=O)Nc1cccc(-c2ccnc3c2CC(C(=O)NCCN(C)C)O3)c1 (stereo unspecified)
2	-15	7.9	CC(C)CC#Cc1cnc2c(c1)C(=O)N([C@@H](C)CO)C[C@@H](C)[C@@H](CN(C)Cc1ccccc1)O2
2	0	-1.0	CO[C@@H]1CN(C)C(=O)c2cc(NS(=O)(=O)c3c(C)noc3C)ccc2OC[C@H](C)NC[C@H]1C
-2	-8	3.5	C[C@@H]1CCCCO[C@H](CN(C)Cc2ccc3c(c2)OCO3)[C@H](C)CN([C@H](C)CO)C(=O)c2cc(NC(=O)Nc3cccc4ccccc34)ccc2O1
2	1	-0.4	O=C(C1CC1)N1C[C@H]2[C@@H](c3ccccc31)[C@H](CO)N2S(=O)(=O)c1ccccc1
-1	-2	0.0	Cc1noc(C)c1S(=O)(=O)N(C)C[C@@H]1Oc2ccc(NC(=O)Nc3cccc4ccccc34)cc2CC(=O)N([C@@H](C)CO)C[C@@H]1C
2	10	0.9	O=C(C[C@@H]1CC[C@@H]2[C@H](COC[C@@H](O)CN2Cc2ccccc2)O1)N[C@@H]1CCN(Cc2ccccc2)C1
-12	-19	-2.0	CCCCCC(=O)N1C[C@H](O)[C@@H](n2cc(-c3ccc(F)cc3)nn2)C[C@@H]1c1ccc(C)cc1

(list continues)
rRNA inh HTS	rRNA inh HTS OD600	rRNA inh HTS RFP	structure
0	-2	2.4	CN1C(=O)c2cc(NC(=O)C3CC3)ccc2OC[C@H]2O[C@@H](CC(=O)NCc3cccc(F)c3)CC[C@@H]21
0	15	-1.0	CCCNC(=O)N1[C@@H]2Cn3c(ccc(-c4ccc(OC)cc4)c3=O)[C@H]1[C@@H](C(=O)NC1CCC1)[C@@H]2CO
1	0	0.3	O=C(NCC[C@@H]1CC[C@H](NS(=O)(=O)Cc2ccccc2)[C@@H](CO)O1)C1CCC1
-3	5	0.5	COc1ccc(NC(=O)N(C)C[C@H]2OCc3cnnn3CCCC(=O)N([C@@H](C)CO)C[C@@H]2C)cc1
-55	-73	-6.3	Cn1cnc(S(=O)(=O)N2CCCCN3[C@H](C2)[C@@H](c2ccc(C#CC4CCCC4)cc2)[C@@H]3CO)c1
-1	-6	4.0	CCS(=O)(=O)N(C)C[C@@H]1N[C@H](CO)[C@@H]1c1ccc(C#CC2CC2)cc1
2	7	-2.0	COc1ccc(S(=O)(=O)N(C)C[C@@H]2Oc3c(NC(=O)C4CCOCC4)cccc3C(=O)N([C@H](C)CO)C[C@@H]2C)cc1
7	6	0.3	CCCc1nc2ccc(Cl)cn2c1Cc1ccc(C)cc1
1	8	-2.3	COc1ccccc1-c1ccc2n(c1=O)C[C@H]1[C@H](CO)[C@@H](C(=O)NCC3CC3)N(S(C)(=O)=O)[C@@H]21
-2	1	-2.6	C[C@@H]1CN([C@@H](C)CO)C(=O)c2cc(N(C)C)ccc2O[C@@H](C)CCCCO[C@@H]1CN(C)C(=O)Cc1ccccc1

The listing continues:
rRNA inh HTS	rRNA inh HTS OD600	rRNA inh HTS RFP	structure
-57	-79	-13	O=C(Nc1cccc(F)c1)N1CCCCN2[C@H](CO)[C@H](c3ccc(C#CC4CC4)cc3)[C@H]2C1
1	3	0.0	COCCN(C[C@@H]1[C@@H](c2ccccc2)[C@H](CO)N1C(=O)C1CCC1)C(C)=O
-2	8	-0.4	CCCC(=O)Nc1ccc2c(c1)C(=O)N(C)[C@H]1CC[C@H](CC(=O)N3CCCCC3)O[C@H]1CO2
2	-24	12	C[C@@H]1CN([C@H](C)CO)C(=O)c2cc(NC(=O)Nc3ccccc3)ccc2O[C@@H](C)CCCCO[C@@H]1CN(C)Cc1ccc2c(c1)OCO2
1	2	-2.3	O=C(C[C@@H]1C[C@H]2c3cc(NC(=O)c4cccnc4)ccc3O[C@H]2[C@H](CO)O1)NCC(F)(F)F
0	0	-0.2	C[C@@H]1CN([C@@H](C)CO)S(=O)(=O)c2ccc(C#C[C@@H](C)O)cc2O[C@H]1CN(C)C(=O)CN(C)C
2	5	-0.7	CO[C@@H]1CN(C)C(=O)c2cc(NC(=O)C3CC3)ccc2OC[C@@H](C)N(CC2CCOCC2)C[C@@H]1C
4	9	-1.0	CC(=O)Nc1cccc(-c2cc(N3CCN(CCO)CC3)n3nccc3n2)c1
-4	-5	3.0	C[C@H]1CCCCO[C@@H](CN(C)Cc2ccncc2)[C@@H](C)CN([C@@H](C)CO)C(=O)c2cc(NC(=O)c3ccccc3)ccc2O1
10&1	13&4	-5.6&-1.4	C[C@H]1CN([C@@H](C)CO)C(=O)CCCn2nncc2CO[C@@H]1CN(C)S(=O)(=O)c1cccc(C#N)c1

(more compounds)
rRNA inh HTS	rRNA inh HTS OD600	rRNA inh HTS RFP	structure
-4	-3	-0.4	C[C@@H]1CN([C@H](C)CO)C(=O)Cc2cc(NC(=O)Cn3cnnn3)ccc2O[C@@H]1CN(C)Cc1ccc2c(c1)OCO2
0	-13	20	N#C[C@H]1[C@H](c2ccc(-c3ccccc3F)cc2)[C@H](CO)N1C(=O)C1CCC1
-1	4	-2.2	O=C(N[C@@H]1CC[C@@H](CCn2cc(-c3ccccn3)nn2)O[C@@H]1CO)c1ccccc1
2	-8	-2.9	C[C@@H]1CN([C@@H](C)CO)S(=O)(=O)c2ccc(C#CC3CC3)cc2O[C@@H]1CN(C)C(=O)CN(C)C
-4	5	-0.2	COc1ccc(-c2cnc3c(c2)C(=O)N([C@@H](C)CO)C[C@@H](C)[C@H](CN(C)C(=O)C2CC2)O3)cc1
-2	-6	-2.7	CN1CCN(C(=O)C[C@H]2CC[C@H]3[C@@H](COC[C@H](O)CN3C(=O)C3CC3)O2)CC1
1	4	-1.2	O=C(N[C@@H]1CC[C@@H](CCn2cc(C3CCCC3)nn2)O[C@@H]1CO)c1cccnc1
4	1	0.7	C[C@@H]1CN([C@@H](C)CO)C(=O)c2cc(C#Cc3ccccc3)cnc2O[C@H]1CN(C)C(=O)CCN1CCCCC1
1	8	-0.6	CC(C)NC(=O)Nc1ccc2c(c1)C(=O)N([C@@H](C)CO)C[C@H](C)[C@H](CN(C)Cc1ccc(C(=O)O)cc1)OCCCC[C@@H](C)O2
1	8	0.0	COCC(=O)Nc1ccc2c(c1)[C@@H]1C[C@@H](CC(=O)NCc3ccc4c(c3)OCO4)O[C@H](CO)[C@@H]1O2
0	7	-2.6	O=C(C[C@@H]1CC[C@@H](NS(=O)(=O)c2ccccc2)[C@H](CO)O1)N1CCN(c2ccccc2)CC1
-10	-56	15	O=C(Cc1ccccc1)N1CC(=O)N2[C@H](C1)[C@H](c1ccc(-c3cccc(F)c3)cc1)[C@@H]2CO

An excerpt; count on the stated rates, not on these rows.
